Screening results deposited in PubChem by Johns Hopkins Ion Channel Center.
KCNQ2 enhance: potentiators of rat KCNQ2 potassium channel | Potassium voltage-gated channel subfamily KQT member 2 (Rattus norvegicus), O88943 | CHO-K1 KCNQ2, FluxOR thallium flux fluorescence; active compounds read high | B-score at 10 µM | actives 0.54% (n = 310,000);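 active = fluorescence ratio B-score at least 3 SD of library B-scores, with initial fluorescence B-score within 3 SD, cut at about 5.3 in these data; same plate scores as AID 2156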;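 also: B-score of peak minus minimum over baseline fluorescence ratio after K+ and Tl+ stimulus; positive B-score means potentiation of KCNQ2 with more thallium influx and brighter signal; only the inactives scoring about 0 or higher are listed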
Target sequence (O88943 whole entry, looked up): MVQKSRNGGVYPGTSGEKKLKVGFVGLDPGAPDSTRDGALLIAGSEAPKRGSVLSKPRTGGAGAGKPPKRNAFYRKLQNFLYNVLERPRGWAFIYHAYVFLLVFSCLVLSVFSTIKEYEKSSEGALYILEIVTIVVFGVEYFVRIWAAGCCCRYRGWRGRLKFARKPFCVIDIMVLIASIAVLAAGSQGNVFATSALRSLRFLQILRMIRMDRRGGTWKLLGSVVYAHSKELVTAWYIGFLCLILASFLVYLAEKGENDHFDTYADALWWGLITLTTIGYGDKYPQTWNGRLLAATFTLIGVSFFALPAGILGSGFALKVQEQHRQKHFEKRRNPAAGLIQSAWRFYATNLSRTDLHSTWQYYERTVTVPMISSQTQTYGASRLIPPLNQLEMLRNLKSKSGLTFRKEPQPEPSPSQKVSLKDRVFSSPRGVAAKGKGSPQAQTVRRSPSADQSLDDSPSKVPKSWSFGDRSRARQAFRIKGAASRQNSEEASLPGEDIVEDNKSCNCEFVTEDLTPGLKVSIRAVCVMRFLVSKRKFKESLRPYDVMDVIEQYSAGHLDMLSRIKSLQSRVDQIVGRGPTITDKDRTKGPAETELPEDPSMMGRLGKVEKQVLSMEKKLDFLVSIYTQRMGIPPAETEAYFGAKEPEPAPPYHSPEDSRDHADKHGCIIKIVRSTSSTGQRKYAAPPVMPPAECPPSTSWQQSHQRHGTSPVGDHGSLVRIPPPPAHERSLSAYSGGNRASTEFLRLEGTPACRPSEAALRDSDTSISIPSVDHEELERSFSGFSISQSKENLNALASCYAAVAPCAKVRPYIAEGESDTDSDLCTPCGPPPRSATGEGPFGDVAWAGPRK
KCNQ2 enhance baseline: further read-out of KCNQ2 enhance, marked with its call; B-score; compound at 10 µM; measured here: initial fluorescence intensity artifact check;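 brightness before thallium and not channel activity; 0 = typical well and far values either way flag optical interference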
Numbers without * were called inactive; . = not tested or not shown. Some of the compounds tested; the hit share may differ from the screen's.

SMILES	KCNQ2 enhance	KCNQ2 enhance baseline
CC(=O)NC(Cc1ccc(N(CCCl)CCCl)cc1)C(=O)O (stereo not given)	0.04	-0.81
O=C1Nc2ccccc2C(c2ccccc2)=NC1O (stereo not given)	1.9	2.2
Cc1cc(NC(=O)CCl)nn1C	0.67	0.41
O=[N+]([O-])[N-][n+]1cnn(Cc2ccccc2)c1	0.7	0.5
COC(=O)CNC(=O)c1cn(CCC#N)nc1-c1ccc(F)cc1	0.08	-1.3
CN1CCN(c2nc([N+](=O)[O-])nn2C)CC1	0.53	1.3
CN1CCN(c2c[nH]c(=O)[nH]c2=O)CC1	1.4	0.43
N#C/C(=C(/O)c1ccc(S(=O)(=O)N(CCCl)CCCl)cc1)c1nc2ccccc2[nH]1	1.8	-1.3
COC(=O)COc1ccc(/C=C2\C(=O)NC(=S)N(c3ccc(C)cc3)C2=O)cc1OC	1.2	-0.53
CC(C)c1ccc(N2C(=O)NC(=O)/C(=C\c3cnc(-c4ccccc4)nc3)C2=O)cc1	0.49	-0.15
CC1=CC(=O)OC2CC3OC4C[C@@H](C)C5OC6CC7O[C@]8(C)C/C=C\C9OC%10CC%11OC(CC(C)CO)CC(O)[C@]%11(C)OC%10CC9OC8C[C@]7(C)O[C@]6(C)CCC5OC4C[C@]3(C)OC12 (stereo not given in full)	1.8	2.2
NC(=O)c1ccc(N=Nc2c(O)[nH]c(=O)[nH]c2=O)cc1	1.1	-1.2
CCn1cc(C(=O)O)c(=O)c2ccc(C)nc21	0.81	.
CCCN(CCC)C1CCc2cccc(O)c2C1 (stereo not given)	0.69	0.58
O=C(O)c1ccccc1NC(=O)N1C[C@H]2C[C@@H](C1)c1cccc(=O)n1C2	0.89	-0.17
N=c1sccn1Cc1ccc(Cl)cc1Cl	1.7	0.53
CC(C)OC1CCCC(O)C1CC(=O)O (stereo not given)	0.55	1.9
CC1CN(O)C2CCc3c(no[n+]3[O-])C12O (stereo not given)	0.67	-0.33
CC(NCc1ccccc1C(F)(F)F)C(O)c1ccccc1 (stereo not given)	1.1	-0.04
N#CCCn1cc(C(=O)Nc2ccccc2Br)c(-c2ccc([N+](=O)[O-])cc2)n1	0.58	-0.13
COc1ccc(CNCCc2ccc3c(c2)OCO3)c(OC)c1OC	0.89	0.01
CCOc1ccc(-n2c(O)c(C=Nc3ccc(N(CC)CC)cc3)c(=O)[nH]c2=O)cc1	0.26	-1.6
CC(C)c1ccc(NC(=O)N2C[C@H]3C[C@@H](C2)c2cccc(=O)n2C3)cc1	0.82	-0.85
Cc1nccc2c1[nH]c1ccc(Br)cc12	2	-2.1
N#Cc1ccc(NC(=O)CN2CCCC2)cc1Cl	1.4	-1.1

Entries of single compounds as entered above.
COC(=O)CNC(=O)c1cn(CCC#N)nc1-c1ccc(F)cc1 across the screens: KCNQ2 enhance: 0.08; KCNQ2 enhance baseline: -1.3
CC(C)c1ccc(NC(=O)N2C[C@H]3C[C@@H](C2)c2cccc(=O)n2C3)cc1 across the screens: KCNQ2 enhance: 0.82; KCNQ2 enhance baseline: -0.85
CCn1cc(C(=O)O)c(=O)c2ccc(C)nc21 across the screens: KCNQ2 enhance: 0.81; KCNQ2 enhance baseline: .

Carrying on:
SMILES	KCNQ2 enhance	KCNQ2 enhance baseline
Cc1cc(/C=C2\C(=O)NC(=O)N(c3ccc(F)cc3)C2=O)c(C)n1-c1cccc(C(=O)O)c1	0.82	-0.15
CCC(=O)Nc1cc(C(=O)N2CCC3(CC2)OCCO3)ccc1S(=O)(=O)c1ccc(C)cc1	1.3	-1.9
Fc1ccccc1N1CCN(Cc2c(F)cccc2F)CC1	0.17	0.15
CCC1CO/C(=C(\C(Cl)=C(Cl)Cl)[N+](=O)[O-])N1Cc1ccc(Cl)nc1 (stereo not given)	0.73	-0.21
Cc1cccnc1-n1c(C)nc2ccccc2c1=O	0.29	0.42
O=S(=O)(c1ccc(Cl)cc1)N1CCCCC1c1cccnc1 (stereo not given)	1.6	-1.1
N#Cc1ccc(NC(=O)CN2C(=O)NC3(CCCC3)C2=O)cc1Cl	0.65	-1.1
Clc1ccc2c(c1)C(c1ccccc1Cl)=NCc1nnc(Br)n1-2	1.2	0.71
Cn1c(=O)cc(SCC(=O)N2CCC3(CC2)OCCO3)c2ccccc21	0.54	-0.12
O=c1[nH]c(=S)[nH]c(O)c1N=Nc1ccc(OC(F)F)cc1	0.72	0.39
S=C(NC1CCCCC1)N1CCC(c2cnc[nH]2)CC1	0.02	0.68
c1ccc2c(CNC3CCCCC3)c[nH]c2c1	0.01	0.85
CCOC(=O)c1c(C)c(P(=S)(N2CCOCC2)N2CCOCC2)n(C)c1C	0.18	-2.4
CCN(N=Nc1nonc1OC)c1nonc1OC	0.1	0.06
CCOC(C(=O)OCC(O)CN(CC)CC)(c1ccccc1)c1ccccc1 (stereo not given)	0.61	-0.31
CCN1CCN(C(=O)Cc2coc3cc(C)cc(C)c23)CC1	0.18	-0.52
CC(=O)CC(c1ccccc1[N+](=O)[O-])c1c(O)c2ccccc2oc1=O (stereo not given)	0.24	0
C[C@H]1[C@@H](c2ccccc2)O[C@@H](c2ccccc2Br)N1C	1.7	-0.9
COc1ccc(NC2=NCCCS2)cc1OC	0.71	0.88
COc1cccc(C2C([N+](=O)[O-])=C(N)Oc3c2c(=O)oc2ccccc32)c1 (stereo not given)	0.62	-1.4
COc1cc(C(=O)N2C[C@H]3C[C@@H](C2)c2cccc(=O)n2C3)cc(OC)c1OC	0.01	0.03
COC(=O)C1=C(c2cccc(OC)c2OC)C[C@@H]2CC[C@H]1N2C(=O)NCCNC(C)=O	1.3	1.5
O=C1NC(=O)N(CCC2=CCCCC2)C(=O)/C1=C/c1cccs1	0.34	-0.69
COc1ccc(C(=O)C2CCCN(Cc3ccc(C)s3)C2)cc1OC (stereo not given)	1.2	-1.8
COc1ccc(CCNCc2cccc(C(F)(F)F)c2)cc1OC	0.44	-0.66

Of the compounds above, these have a COOH group:
SMILES	KCNQ2 enhance	KCNQ2 enhance baseline
CC(=O)NC(Cc1ccc(N(CCCl)CCCl)cc1)C(=O)O (stereo not given)	0.04	-0.81
CCn1cc(C(=O)O)c(=O)c2ccc(C)nc21	0.81	.
O=C(O)c1ccccc1NC(=O)N1C[C@H]2C[C@@H](C1)c1cccc(=O)n1C2	0.89	-0.17
CC(C)OC1CCCC(O)C1CC(=O)O (stereo not given)	0.55	1.9
Cc1cc(/C=C2\C(=O)NC(=O)N(c3ccc(F)cc3)C2=O)c(C)n1-c1cccc(C(=O)O)c1	0.82	-0.15

More structures follow.
SMILES	KCNQ2 enhance	KCNQ2 enhance baseline
CC1=CC(=C2C(=O)NC(=O)NC2=O)C=C(C(F)(F)F)N1Cc1ccccc1	1.2	-0.91
COc1cc(/C=C2/C(=O)NC(=O)N(c3ccc(C)cc3)C2=O)cc(OC)c1OC	0.89	1
O=[N+]([O-])c1ccc2c(c1)C(c1ccccc1)=NCCN2	0.04	0.29
CCCN(CCC)C1Cc2cc(OC)c(OC)cc2C1	0.2	-0.08
N#CC(c1ccccc1)N1CCOCC1 (stereo not given)	0.17	0
Cc1ccc(-c2nc3ccc(C)cn3c2CC(=O)N(C)C)cc1	0.08	-1.2
O=C(c1ccccc1)c1cn(CC(=O)N2CCCc3ccccc32)c2ccccc12	0.01	-1.8
Cc1ccc(-n2c(O)c(/C=N/N3CCCCC3c3cccnc3)c(=O)[nH]c2=S)cc1 (stereo not given)	0.35	0.18
Nc1ccc(Cl)cc1C(=O)c1ccccc1Cl	0.27	-0.03
C=CCn1c(O)c(C(C)=NC(C)c2ccccc2)c(=O)[nH]c1=O (stereo not given)	0.03	-0.5
COc1ccccc1CCNC1CCCC(C)C1 (stereo not given)	1.3	-1.4
CCC(=NCCN1CCOCC1)c1c(O)n(C2CCCCC2)c(=O)[nH]c1=O	0.51	1.1
O=C1NC(=O)N(Cc2ccccc2Cl)C(=O)/C1=C/c1cccs1	0.57	0.6
COC[C@]12CN(C)C3C4[C@H](OC)[C@H]1C3([C@@H](OC)C[C@H]2O)[C@@H]1C[C@@]2(O)[C@H](OC(=O)c3ccccc3)[C@@H]1[C@]4(OC(C)=O)[C@@H](O)[C@@H]2OC	3.6	0.05
COC(=O)c1c(C)n(Cc2ccc3c(c2)OCO3)c2ccc(O)cc12	1	0
CC(N)Cc1c[nH]c2ccc(Cl)cc12 (stereo not given)	0.67	0.41
COc1cc2c(cc1OC)-c1c(OC)c(OC)cc3c1[C@H](C2)[N+](C)(C)CC3	0.77	0.57
C=CCn1c(O)c(C(CC)=Nc2ccc(C(=O)O)cc2)c(=O)[nH]c1=O	0.13	-1.6
CC1CCCCN1C(=O)Cn1cc(C=C2C(=O)N(C)C(=O)N(C)C2=O)c2ccccc21 (stereo not given)	0.37	2.5
CCCCCCn1c(O)c(C(C)=NC)c(=O)[nH]c1=O	0.55	3.6
COC(=NC1CCCCC1)C(O)c1c[nH]c2ccccc12 (stereo not given)	2.9	-0.4
c1ccc(C(OCCN2CCNCC2)c2ccccc2)cc1	0.82	-1.1
C[N+](C)(C)Cc1ccccc1	0.99	-0.03
O=c1[nH]c(O)c(/C=C2/C=CC(c3cc(Cl)ccc3Cl)=N2)c(=O)[nH]1	1.2	0.95
CSc1ncc(/C=C2/C(=O)NC(=O)N(c3ccc(C(C)C)cc3)C2=O)cn1	0.86	0.78
Next records follow:
SMILES	KCNQ2 enhance	KCNQ2 enhance baseline
Cc1ccccc1C1=NCC(=S)Nc2ccc(Cl)cc21	1.3	0.72
CC(Cc1ccccc1Sc1ccccc1O)N(C)C (stereo not given)	1.2	-0.45
Cc1cccc(-n2c(-c3ccco3)nc3ccccc3c2=O)c1C	0.07	-0.22
COc1ccc(CN2C(=O)NC(=O)/C(=C/c3cc(OC)c(OC)c(OC)c3)C2=O)cc1	0.04	-1.8
CC(C)C1(C)N=C(c2ncccc2C(=O)O)NC1=O (stereo not given)	0.94	-0.15
COc1ccc2c(c1)/C(=C/c1cnc[nH]1)C(=O)N2	6.8*	-1.1*
O=C1Nc2ccccc2/C1=C/c1cnc[nH]1	1.4	-0.59
Cc1cc(C=C2C(=O)N(C)C(=O)N(C)C2=O)c(C)n1-c1ccccc1	0.46	0.59
C=CCn1c(O)c(C(CC)=Nc2cc(OC)ccc2OC)c(=O)[nH]c1=O	2.8	0.44
CC1CN=C(Nc2ccc(F)cc2)S1 (stereo not given)	0.68	-0.17
CC(c1ccccc1F)n1cc(C(=O)Nc2ccc3nc[nH]c3c2)nn1 (stereo not given)	0.96	-0.62
C=C(C=O)CC1CC(O)[C@]2(C)OC3CC4OC5C[C@]6(C)O[C@]7(C)CCC8OC9C[C@]%10(C)OC%11C(C)=CC(=O)OC%11CC%10OC9C[C@@H](C)C8OC7CC6O[C@]5(C)CC5OC5C4OC3CC2O1 (stereo not given in full)	-5.6	.
CC(C)CC12CN3CCN(CC(C3)/C1=N/O)C2	0.98	-0.25
c1cncc(CNCCc2c[nH]c3ccccc23)c1	0.43	1.9
CCOC(=O)c1nc2ccccc2c(=O)n1-c1cccc(C)c1	1.1	-0.79
C(=N\NC1=NCCCCC1)/c1c[nH]c2ccccc12	0.05	0.04
O=C(c1cc(-c2ccccc2)on1)N1CCC2(CC1)OCCO2	0.22	2.1
CNS(=O)(=O)c1ccc(N=Cc2c(O)n(-c3cccc(C)c3)c(=O)[nH]c2=O)cc1	1.4	-1.2
O=c1[nH]c(=S)[nH]c(O)c1N=Nc1ccc2c(c1)OCO2	0.46	-0.38
O=c1[nH]c(O)c(C=Nc2cccc(F)c2)c(=O)[nH]1	0.15	1.8
COc1cc(-n2c(=S)[nH]c3ccc(C)cc3c2=O)c(Cl)cc1Cl	5.6*	-1.7*
O=C(c1cccs1)N1C2CCC1CC(O)(c1cccnc1)C2 (stereo not given)	1.7	-0.18
CCN(CC)CCNCC(=O)Nc1ccc(Cl)cc1C(=O)c1ccccc1	2.4	0.23
O=c1[nH]c(=O)n(CCc2ccccc2)c(O)c1/C=N/N1CCOCC1	0.26	-1.4
O=C1NC(=O)N(Cc2ccco2)C(=O)/C1=C/c1ccc(-c2cccc([N+](=O)[O-])c2)o1	0.26	-1.4
More records.
SMILES	KCNQ2 enhance	KCNQ2 enhance baseline
CS(=O)(=O)N1CCN(C(=N)N[N+](=O)[O-])CC1	0.16	-2.5
CCN1CCN(c2nc([N+](=O)[O-])nn2C)CC1	0.96	0.02
CC1=Nc2cc(C(=O)N3CCC4(CC3)OCCO4)ccc2Sc2ccc(Cl)cc21	0.93	2.4
Cc1nc(CCl)cc(=O)[nH]1	0.67	1.5
COc1ccc(C2C([N+](=O)[O-])=C(N)Oc3c2c(=O)oc2ccccc32)cc1 (stereo not given)	0.57	0.18
c1ccc(CC2CCCCN2)cc1 (stereo not given)	0.34	0.7
CCCNC(=O)N1[C@H]2CC[C@@H]1C(C(=O)OC)=C(c1ccccc1)C2	0.06	0.1
CC1=CC(=C2C(=O)NC(=O)NC2=O)C=C(C(F)(F)F)N1C(C)C	0.17	-0.32
CCCCCCC(=O)c1c(O)n(-c2ccc(OC)cc2)c(=O)[nH]c1=O (tested in a mixture with another compound)	1.3	-0.17
CC[C@@H](C(N)=O)N1CCCC1=O	0.64	0.42
COc1ccc(C2SCC(=O)Nc3c2c(C)nn3-c2ccccc2)cc1 (stereo not given)	0.6	2.2
O=C(Cc1ccccc1)N1CCN(Cc2ccccn2)CC1	0.61	0.66
O=C(c1ccc(-c2ccccc2)c(F)c1)C1CCCN(CCO)C1 (stereo not given)	0.78	-0.63
OC1/C(=C/c2ccc(F)cc2)N2CCC1CC2 (stereo not given)	0.45	0.3
C[C@H](NC(=O)N1C[C@H]2C[C@@H](C1)c1cccc(=O)n1C2)C(=O)Nc1ccccc1F	1.2	-1.1
